StopGo FLuc = FMDV 2A StopGo reporter, firefly signal | actives 0.23% (n = 120,000) | Potency, µM (top dose mostly 57.5 µM), without a hit: at the top dose signal change, negative = less light | HEK cells with a luciferase reporter of 2A StopGo recoding; active = well fitted falling curve with a large enough effect; inconclusive = small, poorly fitted or top-dose-only effect; inactive = no such curve, though single readings can be large or run the other way; also: nearly all actives have a fitted effect of over 60% in size; overnight with compound
2A Renilla = lowers the Renilla signal of an FMDV 2A StopGo reporter; actives 0.32% (n = 120,000); HEK cells with a luciferase reporter of 2A StopGo recoding; Potency, µM (series often up to 57.5 µM), for the others: top-dose signal change, negative = less light; active means well fitted falling curve with a large enough effect; inconclusive means small, poorly fitted or top-dose-only effect; inactive means no such curve, though single readings can be large or run the other way; also: nearly all actives have a fitted effect of over 55% in size; overnight with compound
Active calls of the source: *; ? = inconclusive; & = joins results of further samples; [ ] = remark or other dose. % is scaled to controls: 0 for no effect and ±100 for the full control effect; potency is read from the fitted curve at half-maximal effect.

SMILES	StopGo FLuc	2A Renilla
CC(C)c1cc(-c2nc(-c3cccc(Cl)c3)no2)n[nH]1	209%[activator]	22%
COc1ccc(-c2cc(C)no2)cc1S(=O)(=O)NC(C)C	0%	184%[activator]
Cc1ccc(NC(=O)CN2C(=O)CC(c3ccc(F)cc3)=Nc3ccccc32)cc1F	3%	4%
CC1CCCCN1S(=O)(=O)c1ccc2c(c1)c(=O)n(CC(=O)N1CCCCCC1)c(=O)n2C (configuration not stated)	-5%	2%
COc1cc(C2C3=C(CCCC3=O)Nc3c(C#N)cnn32)ccc1O (configuration not stated)	11%	-4%
CCCC1CCC(c2ccc(OC(=O)c3cccs3)cc2)CC1 (configuration not stated)	7%	1%
CSc1ccc(NC(=O)Cc2cc(Cl)c3c(c2)OCCCO3)cc1	24%	-6%
O=C(CSc1nccn1Cc1ccccc1Cl)Nc1cccc(F)c1	-7%	-16%
CCc1ccc(C(=O)Nc2ccc(Cl)cc2)cc1S(=O)(=O)N1CCOCC1	?	?
CC(C)CNC(=O)CN1CCN(C(=O)c2cc3ccccc3[nH]2)CC1	47%[activator]	-11%
O=C(Nc1nc2c(F)cc(F)cc2s1)c1ccc2c(c1)OCCO2	190%[activator]	-3%
Cc1c(Cl)cccc1NC(=O)Cn1c(=O)n(Cc2nc(-c3ccccc3)no2)c(=O)c2cc3c(cc21)OCO3	-6%	-11%
COc1ccccc1C(C)N(C)C(=O)CCc1ncc(-c2ccc(F)cc2)o1 (configuration not stated)	54%[activator]	20%
N#Cc1nc(-c2ccc(Cl)cc2)oc1N1CCCC1	15%	3%
O=C(NCCCN1CCN(c2ccccc2F)CC1)c1sc2ncccc2c1-n1cccc1	-23%	-2%
Cc1ccc(-c2cn3c(n2)sc2cc(C(=O)N4CCCCC4)ccc23)cc1	43%[activator]	47%[activator]
Cc1ccc(-c2nnc(Nc3ccc(Br)cc3)c3ccccc23)cc1S(=O)(=O)N1CCCCC1	-7%	38%[activator]
O=C(O)CCC(=O)N1CCN(CCc2ccccc2)CC1	3%	7%
Cc1cc(C)c(NC(=O)Cn2c(SCC(=O)NCc3ccccc3)nc3ccccc32)c(C)c1	-4%	-13%
Cc1ccc(Cn2c(SCc3ccc(C(=O)O)cc3)nc3cccnc32)cc1	7%	-2%
Cc1ccccc1S(=O)Cc1ccc(C(=O)N2CCN(c3cccc(C)c3C)CC2)o1 (configuration not stated)	20%	7%
COc1ccc(OC)c(NC(=O)c2nc(SCc3ccccc3F)ncc2Cl)c1	-5%	-2%
COc1ccc(C)cc1NC(=O)c1c2c(nc3ccccc13)C(=O)N(C1CCCCC1)C2	4%	-12%
O=C(CSc1nnc(-c2ccccc2F)o1)Nc1cccc(C(F)(F)F)c1	70%[activator]	30%[activator]
N#Cc1ccc(COc2ccc3ccccc3c2CN2CCCCC2)cc1	-7%	-4%
Cn1c(SCc2ccc(F)cc2)nc2ccc(C(=O)NCc3ccc(F)cc3)cc21	?	-21%
Cc1ccc(NC(=O)Cc2nc(CSc3nncn3-c3ccc(C)cc3C)cs2)cc1	42%[activator]	13%
CCOC(=O)c1c(C)[nH]c(C)c1S(=O)(=O)N1CCC(C(=O)N2CCN(c3cccc(C)c3C)CC2)CC1	-30%	74%[activator]
Cc1nn(-c2ccc3nncn3n2)c2c1C(c1ccccc1Cl)CC(=O)N2 (configuration not stated)	-5%	-8%
Cn1c(=O)c2c(nc(NCc3ccc(S(N)(=O)=O)cc3)n2Cc2ccc(Cl)cc2)n(C)c1=O	-3%	20%
N#C/C(=C\c1ccc(OCC(=O)O)cc1)C(=O)N1CCOCC1	2%	0%
COc1ccc(CN2CCN(Cc3cc(=O)oc4cc(C)ccc34)CC2)c(OC)c1OC	-7%	-6%
Cc1ccc(-c2cc(N)n(Cc3cccc(Cl)c3)n2)cc1	-4%	28%
Cc1cccc(C(=O)NC2CC2)c1C	-4%	0%
CCCCCCOC(=O)CC(C(=O)OCCCCCC)S(=O)(=O)O (configuration not stated)	-5%	-10%
CCOC(=O)Cc1nnc(SC(C)C(=O)Nc2ccc(F)c(F)c2)n1C (configuration not stated)	-10%	-5%
CSc1ccc(CNC(=O)C2CCN(c3nnc(-n4cccc4CNc4ccc(C)cc4)s3)CC2)cc1	-4%	-11%
Cc1ccc(C)c(NCC(=O)Nc2cc(Cl)ccc2-n2cncn2)c1	0%	22%
COc1cccc(NC(=O)c2ccc3c(c2)CCC3)c1	206%[activator]	6%
Cc1cc(C)cc(Nc2nc(N)c(C#N)c(CC#N)c2C#N)c1	8%	7%
CCOc1ccc2c(C)c(-c3ccc(OC)c(OC)c3)c(=O)oc2c1	13%	-10%
COc1cccc(CN2C(=O)C3(SCC(=O)N3c3cc(C)cc(C)c3)c3ccccc32)c1 (configuration not stated)	-31%	-10%
O=C(CCOc1ccccc1)Nc1ccc(N2CCOCC2)cc1	66%[activator]	-3%
Cc1cccc(NC(=O)c2ccccc2SCC(=O)NCc2ccco2)c1	-7%	7%
Cc1oc(-c2ccccc2)nc1CC(=O)NCCN(C(C)C)C(C)C	-8%	-15%
CCCN1CCN(CCCNC(=O)Cn2nc(C)n3c(cc4c(OC)cccc43)c2=O)CC1	-11%	-7%
CCOc1ccc(NS(=O)(=O)c2cc3c(cc2Cl)NC(=O)CO3)cc1	-18%	60%[activator]
CCN(CC)CC12CC3CCC(CC(C3)C1)C2	6%	15%
COc1cccc(-c2ccc(-c3noc(-c4ccccc4Br)n3)c(OC)n2)c1	-4%	90%[activator]
COc1cc(C#N)cc(OC)c1OC	4%	8%
COc1ccc(C)cc1NC(=O)c1ccc2c(c1)CCN2S(=O)(=O)c1ccc(Cl)cc1	-9%	-6%
CCN(C(=O)C1CCC(CNS(=O)(=O)c2cccc3nsnc23)CC1)c1ccccc1 (configuration not stated)	-17%	-12%
CCOC(=O)c1c(Oc2ccc(C(=O)OC)cc2)nnc(-c2ccccc2)c1-c1ccccc1	-16%	0%
Cc1ccc(S(=O)(=O)c2cn(CC(=O)Nc3ccc(C)c(Cl)c3)c3ccc(C)cc3c2=O)cc1	-21%	-3%
O=C1CC(=O)CC(c2cc(F)cc(F)c2)C1	-5%	4%
CCN(Cc1ccc(OC)c(F)c1)C(=O)Cn1cnc2c(cnn2C)c1=O	33%	16%
CCCc1cc(=O)oc2cc(C)cc(OCc3nn[nH]n3)c12	-5%	-17%
COc1cccc(Cn2c(CNS(=O)(=O)c3ccc4c(c3)CCCC4)nc3cccnc32)c1	-3%	-27%
CC1CCN(C(=O)C(C)Sc2nc(-c3ccccc3)cc(C(F)(F)F)n2)CC1 (configuration not stated)	-11%	11%
COc1cc(NC(=O)CCCc2nnc3n(CC(C)C)c(=O)c4sccc4n23)cc(OC)c1	-16%	-6%

Four records drawn at random from those above, as already listed:
SMILES	StopGo FLuc	2A Renilla
Cc1cccc(C(=O)NC2CC2)c1C	-4%	0%
CCN(C(=O)C1CCC(CNS(=O)(=O)c2cccc3nsnc23)CC1)c1ccccc1 (configuration not stated)	-17%	-12%
COc1cccc(-c2ccc(-c3noc(-c4ccccc4Br)n3)c(OC)n2)c1	-4%	90%[activator]
Cc1ccc(Cn2c(SCc3ccc(C(=O)O)cc3)nc3cccnc32)cc1	7%	-2%

Additional entries.
SMILES	StopGo FLuc	2A Renilla
COc1cc(CN2CCc3nc(N4CCN(c5ccccc5F)CC4)ncc3C2)ccc1OC(C)C	-9%	?
Oc1ccc(C2(c3ccccc3O)CCCCC2)cc1	-19%	-7%[1.06 µM]
CCCCCn1nc(C(=O)Nc2ccc3nc(N4CCOCC4)sc3c2)c2ccccc2c1=O	-2%	-6%
Cc1sc2c(c1C)c(=O)n(Cc1ccccc1)c(=O)n2CC(=O)N(C)c1ccccc1	-9%	-8%
CC(=O)Nc1ccc(S(=O)(=O)NCCc2cn3ccsc3n2)cc1	3%	-18%
CCc1ccc(NCc2cc(=O)n3[nH]c(-c4ccccc4)nc3n2)cc1	22%	-15%
CC1CCN(CC(=O)c2c[nH]c3ccccc23)CC1	51%[activator]	-13%
CCOC(=O)C1CCN(c2nc3ccccc3nc2C(C#N)C(=O)NCCOC)CC1 (configuration not stated)	-4%	-1%
CCOc1ccc2nc(Nc3ncc4c(n3)CC(C)(C)CC4=O)nc(C)c2c1	-5%	-10%
Cc1cc(-c2nc3ncccc3o2)ccc1NC(=O)c1ccccc1Br	163%[activator]	-3%
CCCn1c2ccccc2c2nnc(SCC3CC3(Cl)Cl)nc21 (configuration not stated)	14%	60%[activator]
Cc1ccccc1Cn1c(CN2CCN(c3cc(Cl)ccc3C)CC2)nc2c1c(=O)[nH]c(=O)n2C	-13%	-16%
COc1ccc(C)cc1NC(=O)N1CCCn2nc(C)cc21	1%	-5%
O=C(c1nn2c(C(F)(F)F)cc(-c3ccco3)nc2c1Br)N1CCCCCC1	?	6%
CN1CCN(C(C(=O)O)c2c[nH]c3cc(NC(=O)CCC(=O)O)ccc23)CC1 (configuration not stated)	11%	-3%
CCC(C)C(=O)NCCc1ccsc1 (configuration not stated)	9%	6%
O=C(COc1ccc2ccccc2c1)Nc1cnc2ccccc2c1	-5%	7%
CN1C(=O)Cc2cc(S(=O)(=O)NCCc3ccc(Cl)cc3)ccc21	-22%	102%[activator]
COc1ccccc1Nc1ncnc2c1cnn2-c1cccc(Cl)c1	147%[activator]	-4%
CCOC(=O)c1oc2cc(OCc3cccc(OC)c3)ccc2c(=O)c1-c1ccc(OC)c(OC)c1	-6%	-9%
O=C(CCS(=O)(=O)c1cc2c(cc1Cl)NC(=O)CO2)NCc1ccccc1Cl	0%	11%
Cc1cc(C)cc(NC(=O)CCc2c(C)nc3c4cccnc4nn3c2C)c1	-13%	8%
COc1cc(CN(C(=O)COc2ccc(C)c(C)c2)c2ccccn2)cc(OC)c1OC	-9%	-27%
CC(C)CN(C(=O)CN1CCN(c2cccc(Cl)c2)CC1)c1c(N)n(CC(C)C)c(=O)[nH]c1=O	6%	-1%
c1cc2c3c(cccc3c1)/C(=N/OCC1CO1)C2 (configuration not stated)	5%	-12%
Cc1ccc(N(Cc2cc3ccccc3[nH]c2=O)S(C)(=O)=O)cc1	2%	14%
CCn1c(N2CCN(Cc3c(F)cccc3Cl)CC2)nc2c1c(=O)[nH]c(=O)n2C	-3%	-4%
Cc1ccccc1C(=O)NC1CCCC(C(F)(F)F)C1 (configuration not stated)	152%[activator]	5%
COc1ccccc1CNC(=O)c1ccccc1C(=O)c1cccs1	11%	19%
Cc1cc(C)c(S(=O)(=O)N2CCN(c3ccc(N4CCCCCC4)nn3)CC2)c(C)c1	-29%	-23%
Fc1ccccc1-n1ncc2c1ncn1nc(-c3ccccc3Cl)nc21	130%[activator]	-4%
Cc1ccc(CNc2ncnc3c2nc2n3CCCC2)cc1	-6%	2%
N#Cc1ccccc1NC(=O)COC(=O)c1ccc2c(c1)NC(=O)CS2	0%	-9%[1.06 µM]
CCN(c1ccccc1)S(=O)(=O)c1cccc(C(=O)Nc2ccc3oc(C)nc3c2)c1	?	?
O=C(COC(=O)C12CC3CC(CC(Cl)(C3)C1)C2)Nc1ccc(Cl)cc1[N+](=O)[O-]	7%	-18%
Cc1cc(=O)n2nc(N(C)CC(=O)NCc3ccccc3C)sc2n1	-20%	-10%
CCCN(CCC)c1ccc(NS(=O)(=O)c2ccc(C3CCCCC3)cc2)cc1C(=O)O	?	33%[activator]
COc1cccc2cc(-c3nc(-c4ccc(C)cc4)c(C)s3)c(=O)oc12	-14%	-5%
c1cnc2c(CSc3nnc(-c4c[nH]c5ccccc45)o3)cccc2c1	185%[activator]	27%
COc1ccc(C(=O)N2CCCCC2CCN2CCOCC2)cc1 (configuration not stated)	-12%	-8%

Reformatted with bars between the fields: two of the compounds above
molecule | StopGo FLuc | 2A Renilla
O=C(CCS(=O)(=O)c1cc2c(cc1Cl)NC(=O)CO2)NCc1ccccc1Cl | 0% | 11%
Cc1cc(C)cc(NC(=O)CCc2c(C)nc3c4cccnc4nn3c2C)c1 | -13% | 8%

Returning to the listing, repeating the 2 entries before the break.
SMILES	StopGo FLuc	2A Renilla
c1cnc2c(CSc3nnc(-c4c[nH]c5ccccc45)o3)cccc2c1	185%[activator]	27%
COc1ccc(C(=O)N2CCCCC2CCN2CCOCC2)cc1 (configuration not stated)	-12%	-8%
Cc1ccc(CNc2nc3c(c(=O)[nH]c(=O)n3C)n2CCCc2ccccc2)cc1	11%	10%
Cc1ccccc1CNC(=O)c1ccc(NC(=O)c2nsc3ccccc23)cc1	6%	123%[activator]
Cc1ccc(NC(=O)c2c(C)oc3ncn(CC(C)C)c(=O)c23)nc1	23%	-1%
CCCC(=O)Nc1c(S(=O)(=O)c2ccccc2)c(C)c(C)n1Cc1ccccc1	-11%	76%[activator]
CN(Cc1ccc(C(=O)NCC(F)(F)F)cc1)C(=O)Cc1cccc(C(F)(F)F)c1	-2%	18%
CC(O)CNc1nc2c(c(=O)n(C)c(=O)n2C)n1Cc1ccc(Cl)c(Cl)c1 (configuration not stated)	?	-45%
N#Cc1ccc(S(=O)(=O)NCCc2ccc(-n3cccn3)cc2)cc1	-24%	70%[activator]
CC1CCc2nn(CC(=O)Nc3cccc(C(F)(F)F)c3)c(=O)cc2C1 (configuration not stated)	-20%	-11%
Cc1cccc(CCNC(=O)C2CCC(CNS(=O)(=O)c3ccccc3)CC2)c1 (configuration not stated)	-6%&5%	2%&12%
CCCOC(=O)c1ccc(Nc2nc3ccccc3nc2NS(=O)(=O)c2cccc(C)c2)cc1	32%[activator]	-14%
Nc1nc2c(s1)C(c1ccc(Br)cc1)CC(=O)N2 (configuration not stated)	23%	-2%
COCCCNC(=O)CSc1nc2c(sc3ccccc32)c(=O)n1CCCC(=O)NCCOC	-13%	3%
Cc1ccc(C)c(S(=O)(=O)Nc2nc3ccccc3nc2NCc2ccc3c(c2)OCO3)c1	40%[activator]	168%[activator]

Bioassay records from PubChem BioAssay.

The list is partial, so the mix of outcomes need not match the whole.
